High-throughput results from PubChem BioAssay.
Menin-MLL FL inh: qHTS Assay for Inhibitors Targeting the Menin-MLL Interaction in MLL Related Leukemias: Competition With Fluorescein Labeled MLL-derived Peptide; 290,000 tested, under 10 active; Fluorescence polarization, fluorescein-MLL peptide displacement from menin; FP activity change, % at 61.4 µM; inconclusive = falling polarisation curve, or a change in total fluorescence; inactive = total fluorescence flat and polarisation flat or rising; no compound was filed as active; the % refers to the polarisation; negative = inhibition;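 note: % of control where 0% means no effect; inhibitors lower the polarisation; unlabelled MLL peptide was the positive control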
Sfp inh: qHTS Assay for Inhibitors of Bacillus subtilis Sfp phosphopantetheinyl transferase (PPTase); 4'-phosphopantetheinyl transferase ffp (Bacillus subtilis), Q9F4F7; Biochemical Sfp PPTase activity, qHTS; Potency, µM, for inactives: max response, negative = inhibition, hits mostly inhibitors; actives 3.5% (n = 310,000); AID 1490, 2009; active = well fitted inhibition curve with a large enough effect; inconclusive = small, poorly fitted or top-dose-only effect, or another doubt; inactive = no such curve, though single readings can be large or run the other way;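 note: the enzyme is Sfp with the accession as filed and its product quenches rhodamine fluorescence; potency is the fitted concentration of half-maximal effect; 0% = enzyme reaction without inhibitor and -100% = no enzyme wells; top concentration of the series not given in the record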
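Reaction rates are the 30-min fluorescence difference (ex 525, em 598 nm) in wells containing 15 nM Sfp, 5 uM rhodamine-CoA and 12.5 uM BHQ-2-YbbR at pH 7.6 with 10 mM MgCl2.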
gsp ag: qHTS for Agonist of gsp, the Etiologic Mutation Responsible for Fibrous Dysplasia/McCune-Albright Syndrome: qHTS; actives 0.13% (n = 340,000); Potency, µM (top dose mostly 76.9 µM), for the others: at the top dose activation (cAMP increase), most hits filed as activators; gsp mutant cells, cAMP HTRF, 30 min; control for the full effect not named in the record; active = well fitted activation curve with a large enough effect; inconclusive = small, poorly fitted or top-dose-only effect, or another doubt; inactive = no such curve, though single readings can be large or run the other way; cell line not stated here;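 note: phosphodiesterase inhibitor Ro 20-1724 added with compounds to block cAMP breakdown; potency is the fitted concentration of half-maximal effect; nearly all actives have a fitted effect of over 60% in size; about a fifth of the inactives were tested at one dose only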
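Cells stably selected in G418 were plated at 2000/well, grown 16-24 hr, then given compounds in DMSO with the PDE inhibitor […] (300 uM solution added) for 30 min at 37C; cAMP was read by HTRF.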
TRPV1 potentiator: HTS Assay for Compounds that Act as Potentiators of the Vanilloid Receptor 1; Transient receptor potential cation channel subfamily V member 1 (Homo sapiens), Q8NER1; TRPV1-expressing cells, Fluo-8 calcium influx, capsaicin EC20 potentiation; host cell line not named in the record; control for the full effect not named in the record; potentiation, % at 8.33 µM; actives 0.02% (n = 320,000); active means potentiation above 80%; inconclusive means 30% to 80%; inactive means below 30%; note: 0% is about no effect
Target sequence (Q8NER1 whole entry, looked up): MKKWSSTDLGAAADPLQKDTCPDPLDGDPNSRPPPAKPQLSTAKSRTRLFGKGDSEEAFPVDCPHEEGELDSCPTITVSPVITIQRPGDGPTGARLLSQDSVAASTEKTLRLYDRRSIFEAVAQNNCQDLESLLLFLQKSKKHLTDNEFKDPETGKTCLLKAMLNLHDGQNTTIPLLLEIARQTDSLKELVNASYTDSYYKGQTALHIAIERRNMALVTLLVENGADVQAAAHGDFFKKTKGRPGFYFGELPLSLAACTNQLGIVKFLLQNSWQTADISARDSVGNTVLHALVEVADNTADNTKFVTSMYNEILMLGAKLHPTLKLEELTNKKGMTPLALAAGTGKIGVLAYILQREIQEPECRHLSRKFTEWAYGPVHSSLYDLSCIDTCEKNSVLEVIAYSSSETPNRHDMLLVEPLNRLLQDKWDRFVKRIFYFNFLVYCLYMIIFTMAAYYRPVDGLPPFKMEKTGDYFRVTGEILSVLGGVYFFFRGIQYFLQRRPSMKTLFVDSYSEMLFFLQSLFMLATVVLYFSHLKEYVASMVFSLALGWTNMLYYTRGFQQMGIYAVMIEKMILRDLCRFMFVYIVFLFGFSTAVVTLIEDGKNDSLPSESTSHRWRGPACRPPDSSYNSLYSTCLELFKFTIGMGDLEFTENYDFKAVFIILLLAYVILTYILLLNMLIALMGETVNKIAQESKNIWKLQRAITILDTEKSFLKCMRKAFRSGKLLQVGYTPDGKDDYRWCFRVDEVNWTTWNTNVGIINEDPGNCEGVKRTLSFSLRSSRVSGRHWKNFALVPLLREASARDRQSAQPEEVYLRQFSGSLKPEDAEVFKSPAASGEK
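Cells expressing TRPV1 were dye-loaded with Fluo-8 and read kinetically: 10 s baseline, 3 min after compound (agonist portion), then 2 min after EC20 capsaicin (allosteric enhancer portion). Calcium-bound dye fluorescence at 480/520 nm.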
ClpP mod: qHTS Assay for Activators of ClpP. purified B. subtilis ClpP, FRET peptide cleavage, 20 min. Potency, µM (highest dose often 57.5 µM), without a hit: top-dose activity change, negative = active. actives 1.9% (n = 340,000); active = well fitted falling curve with a large enough effect; inconclusive = small, poorly fitted or top-dose-only effect; inactive = no such curve, though single readings can be large or run the other way; note: potency is the fitted concentration of half-maximal effect; the source files actives as falling curves though it sought activators and does not explain the sign; nearly all actives have a fitted effect of over 65% in size; many hits overshoot -100%
Target sequence (P80244 whole entry, looked up): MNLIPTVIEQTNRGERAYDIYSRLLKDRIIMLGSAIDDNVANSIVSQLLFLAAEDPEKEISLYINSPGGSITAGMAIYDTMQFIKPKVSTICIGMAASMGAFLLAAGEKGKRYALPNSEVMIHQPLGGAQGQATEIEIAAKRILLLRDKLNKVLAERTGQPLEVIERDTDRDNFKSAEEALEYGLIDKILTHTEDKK
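Buffer: 100 mM Tris/HCl pH8, 100 mM KCl, 0.05% low protease BSA, 2.5% glycerol, 0.01% Tween-20. ClpP 10 microg/mL final; 20 min RT; delta FRET normalized to ADEP and DMSO controls.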
gsp antag: qHTS for Antagonists of gsp, the Etiologic Mutation Responsible for Fibrous Dysplasia/McCune-Albright Syndrome: qHTS; gsp-mutant cells, cAMP HTRF, 30 min; control for the full effect not named in the record; Potency, µM (series often up to 76.9 µM), without a hit: at the highest dose activity change, negative = inhibition, hits mostly inhibitors; actives 0.4% (n = 340,000); active = falling curve of any shape with a large fitted effect; inconclusive = falling curve, mostly with a smaller effect; inactive = flat or rising curve; cell line not stated here;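 note: intracellular cAMP measured with PDE inhibitor Ro 20-1724 present during compound exposure; potency is the fitted concentration of half-maximal effect; % is set by controls: 0 for no effect and ±100 for the full control effect; nearly all actives have a fitted effect of over 65% in size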
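Cells in G418 medium, seeded 16-24 h, 37C; buffer exchange to DPBS + 1 mM CaCl2, 0.5 mM MgCl2, 0.05% BSA; cpds in DMSO + […] (300 uM stock), 30 min 37C; HTRF cAMP detection.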
D2 potentiator: Beta-Arrestin HTS for Positive Allosteric Modulators of the Human D2 Dopamine Receptor: Potentiators. D(2) dopamine receptor (Homo sapiens), P14416. DiscoveRx D2 beta-arrestin cells, luminescence, 90 min; 100% = 57 uM dopamine signal. potentiation, % (concentration not given with the values). actives 0.23% (n = 360,000); active = potentiation of 50% or more; inconclusive = 30% to 50%; inactive = 30% or less;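 note: compound concentration not given in the record; tested on top of an EC20 dose of dopamine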
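D2 cells co-treated with compound plus 50 nM dopamine (EC20) for 90 min at 37 deg C to detect potentiation. Beta-arrestin recruitment was read as enzyme-fragment luminescence after 1 h at ambient temperature. Full response was set by 57 uM dopamine.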
Active calls of the source: *; u = inconclusive; x = not tested or not shown; [ ] = dose if it differs, or a comment.

compound	Menin-MLL FL inh	Sfp inh	gsp ag	TRPV1 potentiator	ClpP mod	gsp antag	D2 potentiator
CC(C)(C)C1CCc2c(sc(NC(=O)c3cc(C4CC4)on3)c2C#N)C1 (stereo unspecified)	0.3	-24%	10%	x	u	-3%	-5
CCNC(=S)NNc1nnc(-c2ccccc2)c(-c2ccccc2)n1	8.2	5%	-36%[inhibitor]	4	x	-3%	-26
CC(Oc1ccc(Br)cc1)C(=O)NNC(=O)CCN1CCN(c2ccccc2)CC1 (stereo unspecified)	x	x	10%	12	-3.0%	9%	-36
Cc1ccc2cccc(NC(=S)NC(=O)c3ccn(C)n3)c2n1	1.1	-2%	-16%	-6	1.6%	-8%	-23
COc1ccccc1NC(=O)C(C)Sc1nnnn1C (stereo unspecified)	0.6	19%	-16%	u	-0.6%	4%	-11
Cc1ccc(S(=O)(=O)N(C)c2ccccc2C(=O)N2CCOCC2)cc1	x	8%	-2%	15	-0.1%	10%	10
CC(C)n1cc(CN2CCC(C(=O)Nc3cccc(-c4cccc(Cl)c4)c3)CC2)cn1	x	-16%	-1%	-42	3.0%	2%	-23
CC(C)(C(=O)c1ccccc1)/[N+]([O-])=C/c1ccc(F)cc1	x	x	36%	x	0.0%	0%	-1

(list continues)
compound	Menin-MLL FL inh	Sfp inh	gsp ag	TRPV1 potentiator	ClpP mod	gsp antag	D2 potentiator
COc1ccc(-n2nc3cc(N)c(Br)cc3n2)cc1	0.4	-6%	8%[15.4 µM]	2	1.4%	0%	-6
N=C1C(c2nc3ccccc3s2)=C(O)CN1C1CCCCC1	2.2	7%	u	-1	-7.5%	14%	0
CCOC(=O)C1CCCN(Cc2ccccc2OCC)C1 (stereo unspecified)	0.1	-12%	-1%	-1	-0.3%	-7%	-10
Cn1c(CC(=O)Nc2ccccc2)nnc1SCCOc1ccccc1	5.3	18%	-11%	17	1.2%	-8%	-21
CCS(=O)(=O)N1CCC(C(=O)NCCCN2CCCCCC2)CC1	2.4	11%	-60%[inhibitor]	-9	2.7%	9%	-17
COc1cc(C#CC#CCN2CCCCC2)ccc1O	1.1	-28%	0%	1	-0.5%	-2%	-29
COc1cc(OC)c2c(c1)OC(=O)CC2c1ccc(C)cc1 (stereo unspecified)	-1.0[94.6 µM]	-5%	x	x	0.9%	-1%	x
COc1ccc(CCNC(=O)C(C)SCc2ccccc2)cc1 (stereo unspecified)	1.8	-3%	-27%	-36	x	4%	-3

The list goes on, overlapping the part above by six compounds.
compound	Menin-MLL FL inh	Sfp inh	gsp ag	TRPV1 potentiator	ClpP mod	gsp antag	D2 potentiator
CCOC(=O)C1CCCN(Cc2ccccc2OCC)C1 (stereo unspecified)	0.1	-12%	-1%	-1	-0.3%	-7%	-10
Cn1c(CC(=O)Nc2ccccc2)nnc1SCCOc1ccccc1	5.3	18%	-11%	17	1.2%	-8%	-21
CCS(=O)(=O)N1CCC(C(=O)NCCCN2CCCCCC2)CC1	2.4	11%	-60%[inhibitor]	-9	2.7%	9%	-17
COc1cc(C#CC#CCN2CCCCC2)ccc1O	1.1	-28%	0%	1	-0.5%	-2%	-29
COc1cc(OC)c2c(c1)OC(=O)CC2c1ccc(C)cc1 (stereo unspecified)	-1.0[94.6 µM]	-5%	x	x	0.9%	-1%	x
COc1ccc(CCNC(=O)C(C)SCc2ccccc2)cc1 (stereo unspecified)	1.8	-3%	-27%	-36	x	4%	-3
CSc1nnc(C)c(=O)n1COC(=O)COc1ccccc1F	-3.6	11%	u	15	x	12%	-14
NNc1nc2sc3c(c2c(=O)[nH]1)CCc1ccccc1-3	2.1	u	1%	5	-12%	-4%	4
Cc1c(NC(=O)c2cc(C3CC3)on2)c(=O)n(-c2ccccc2)n1C	-0.8	-2%	-24%	-2	1.0%	6%	-4
CCOC(=O)C1CCN(C(=O)c2cc(C(C)(C)C)nn2Cc2ccccc2)CC1	7.7	12%	18%	-20	2.7%	-4%	-8
O=C(c1ccc(Cl)cc1)N1CCN(CCc2ccccn2)CC1	5.9	-2%	-7%[15.4 µM]	-6	3.0%	8%	-10
CN1OC(CC(=O)O)N(c2ccc(Cl)cc2)C1=O (stereo unspecified)	0.7	22%	-4%	1	-1.1%	18%	1
CSc1cccc(NC(=S)NCCCO)c1	-11	-23%	-1%[15.4 µM]	x	x	13%	-2
Cc1ccc2c3c1C(=O)C(=O)N3C(C)(C)CC2C (stereo unspecified)	3.6	-3%	0%	8	-0.8%	-16%	-10

(more compounds)
compound	Menin-MLL FL inh	Sfp inh	gsp ag	TRPV1 potentiator	ClpP mod	gsp antag	D2 potentiator
Cc1cc(C(=O)OCC(=O)NCCC(C)C)c2ccccc2n1	7.9	6%	-2%	-1	-22%	-3%	-3
Cc1cccc(C)c1OCC(=O)NCC1COc2ccccc2O1 (stereo unspecified)	x	x	18%	-22	-0.5%	3%	-5
Cc1cccc(N(CC(=O)N/N=C/c2ccccc2C(=O)O)S(C)(=O)=O)c1C	-2.3	10%	-21%	9	1.7%	6%	-5
O=C(Cc1c(F)cccc1Cl)N(Cc1ccccc1)c1ccccn1	-0.6	19%	-2%	19	-2.2%	9%	-4
CCc1noc(C)c1C(=O)OCC(=O)N(C)c1c(N)n(Cc2ccccc2)c(=O)[nH]c1=O	x	x	-1%	u	-0.2%	1%	-13
Cc1ccc(NC(=O)c2nc[nH]c2C(=O)NC2CCN(C(=O)OC(C)(C)C)CC2)cc1	x	x	12%	x	43%	4%	-8
COc1cccc(CNC(=O)c2ccc(Cl)c(S(=O)(=O)N3CCOCC3)c2)c1	x	x	-4%	-8	-2.8%	-3%	-6
COc1cc(/C=C2\CCCc3c2nc2ccccc2c3C(=O)O)cc(Cl)c1O	u	u	u	-21	-2.5%	4%	-6

Next part
compound	Menin-MLL FL inh	Sfp inh	gsp ag	TRPV1 potentiator	ClpP mod	gsp antag	D2 potentiator
Cc1ccccc1NC(=O)/C(=C/c1cccs1)NC(=O)c1ccco1	1.6	6%	3%	2	0.7%	-4%	-19
CC(C)(C)OC(=O)C(C1NC(C(=O)O)C(C)(C)S1)N1C(=O)c2ccccc2C1=O (stereo unspecified)	x	x	15%[15.4 µM]	x	1.7%	-4%	6
CCCn1nnc(NC(=S)NC(=O)/C=C/c2ccc(Cl)cc2)n1	1.4	u	u	15	x	-20%	2
Cn1c(N)c(S(=O)(=O)N2CCN(c3ccccc3)CC2)c(=O)n(C)c1=O	1.7	-2%	1%	-3	x	10%	-3
O=C(NCCO)/C(=C\c1ccc(Br)cc1)NC(=O)c1cccs1	2.5	-5%	10%[15.4 µM]	5	0.2%	5%	-7
COc1ccccc1CCC(=O)N1CCC(n2nccc2NC(=O)CC(C)C)CC1	x	16%	-26%	4	-25%	-9%	6
Cc1nnnn1/C(=C\c1ccccc1)C(=O)OCC(=O)NC(C)(C)C	7.8	-8%	2%	-3	1.2%	-14%	-19
O=C(COn1nnc2ccc(Cl)cc21)NC12CC3CC(CC(C3)C1)C2	2.2	8%	u	-13	-2.6%	-17%	7

(listing goes on)
compound	Menin-MLL FL inh	Sfp inh	gsp ag	TRPV1 potentiator	ClpP mod	gsp antag	D2 potentiator
Cc1c(NC(=O)Nc2ccccc2)c(=O)n(-c2ccccc2)n1C	-8.2	-2%	u	20	-1.1%	7%	-10
CC(NC(=O)CNC(=O)c1sc2ccccc2c1Cl)c1cccnc1 (stereo unspecified)	-3.6	-1%	11%	15	x	5%	-11
CCOc1ccccc1/C=N/NC(=O)c1nnn(-c2nonc2N)c1CN1CCCC1	-5.3	7%	-2%	10	-1.2%	6%	-3
Cc1ccc2c(c1)c1ncnc(N3CCOCC3)c1n2C	-1.1	16%	17%	-4	36%	-30%	-12
O=C(Nc1ccc(Cl)cc1C(=O)NCC1CCCO1)c1ccco1 (stereo unspecified)	1.1	7%	-13%	-19	-0.9%	4%	-4
CCOC(=O)N1CCN(C(=O)COc2ccc3c(c2)C(=O)CC2(CCN(C(C)=O)CC2)O3)CC1	1.5	6%	0%	-9	16µM*	-2%	-13
CCOc1ccc(Cl)cc1S(=O)(=O)NC1CCCC1	x	9%	-2%	-15	-0.4%	-4%	-8
CCn1c2ccccc2c2cc(NC(=O)CSc3nnc(-c4cccc(F)c4)o3)ccc21	0.9	0%	-22%	-2	-8.8%	-7%	8

Next results.
compound	Menin-MLL FL inh	Sfp inh	gsp ag	TRPV1 potentiator	ClpP mod	gsp antag	D2 potentiator
Cc1ccc(C(=O)Nc2ccc(C(=O)N/N=C/c3ccncc3)cc2)cc1	-2.1	-17%	x	u	x	x	x
CCOC(=O)CSc1nnnn1-c1cc(OC)ccc1OC	1.6	13%	20%	1	-3.3%	-7%	-9
O=C(Nc1ccsc1C(=O)O)c1cccc(C(F)(F)F)c1	-0.8	14%	18%	12	0.5%	u	13
O=C(/C=C/c1ccc(-c2ccccc2[N+](=O)[O-])o1)c1ccccc1	3.5	u	-5%	1	1.5%	-23%	-3
Cc1ccc(S(=O)(=O)c2nc(-c3ccccc3)oc2N2CCCC2)cc1	x	x	-73%[inhibitor]	28	0.5%	13%	0
COc1ccc(C2NC(=O)NC(C)=C2[N+](=O)[O-])cc1 (stereo unspecified)	-3.0	11%	-22%	-14	-1.5%	1%	-3
CCOc1[nH]n(-c2ccc(Cl)cc2)c(=O)c1C=Nc1ccc(C)cc1	1.4	21%	x	-1	x	x	x
CCCn1nnc(NC(=O)c2cccc(OCC(C)C)c2)n1	-0.9	8%	-30%	-26	-0.6%	-3%	-18
Cc1cc(C(F)F)n2nc(C(=O)Nc3cccc(S(=O)(=O)N4CCOCC4)c3)nc2n1	0.2	8%	26%	1	-3.1%	9%	-5
NS(=O)(=O)c1ccc(CCNC(=O)c2ccc(Cl)s2)cc1	0.6	15%	-17%	1	0.7%	-5%	-5
